Bioassay records: PubChem, several laboratories
sEH act = soluble epoxide hydrolase (human) activation | P34913 | purified human sEH enzymatic activity, activator screen | activation, % at 2 µM | hit rate 0.04% among 91,000; in the data active = activation above about 37%; also: values of inactives mirror those of a sister screen read the other way
Target sequence (P34913 whole entry, looked up): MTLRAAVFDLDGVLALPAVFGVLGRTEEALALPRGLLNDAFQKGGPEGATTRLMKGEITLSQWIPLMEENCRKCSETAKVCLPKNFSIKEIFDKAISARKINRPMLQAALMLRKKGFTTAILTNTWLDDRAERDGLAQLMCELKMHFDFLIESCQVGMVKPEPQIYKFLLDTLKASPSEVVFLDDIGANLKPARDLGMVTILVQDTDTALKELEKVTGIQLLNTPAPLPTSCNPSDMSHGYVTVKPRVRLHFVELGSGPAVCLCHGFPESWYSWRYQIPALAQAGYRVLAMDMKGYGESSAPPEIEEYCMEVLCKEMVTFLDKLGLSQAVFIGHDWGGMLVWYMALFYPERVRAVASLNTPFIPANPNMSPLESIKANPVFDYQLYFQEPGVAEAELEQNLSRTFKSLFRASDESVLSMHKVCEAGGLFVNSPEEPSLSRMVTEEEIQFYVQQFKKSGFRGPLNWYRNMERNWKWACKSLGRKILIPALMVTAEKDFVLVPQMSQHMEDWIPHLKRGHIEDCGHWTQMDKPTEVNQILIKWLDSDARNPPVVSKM
sEH inhibitor = soluble epoxide hydrolase (human) inhibition; P34913; recombinant human sEH enzymatic activity assay; inhibition, % at 2 µM; hit rate 0.34% among 91,000; AID 707; in the data active = inhibition above about 80%; also: values of inactives mirror those of a sister screen read the other way; many of its hits are not listed in these tables
S1P2 ag = S1P2 (human) receptor agonism; S1P2-expressing cell line, agonist reporter read-out; hit rate 0.46% among 97,000; activation, % at 4.5 µM; AID 729; O95136; in the data active = activation above about 16%;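 also: 0% = vehicle low control and 100% = maximal reference agonist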
Target sequence (O95136 whole entry, looked up): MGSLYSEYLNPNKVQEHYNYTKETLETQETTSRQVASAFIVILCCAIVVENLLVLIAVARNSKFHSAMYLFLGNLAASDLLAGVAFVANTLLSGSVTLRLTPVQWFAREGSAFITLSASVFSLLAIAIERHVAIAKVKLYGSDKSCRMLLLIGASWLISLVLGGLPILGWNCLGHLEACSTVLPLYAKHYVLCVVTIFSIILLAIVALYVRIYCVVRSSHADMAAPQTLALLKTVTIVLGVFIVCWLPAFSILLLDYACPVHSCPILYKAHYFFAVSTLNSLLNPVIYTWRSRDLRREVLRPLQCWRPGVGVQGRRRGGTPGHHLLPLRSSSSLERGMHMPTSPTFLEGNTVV
PostGolgi ctrl = yeast control strain growth, post-Golgi counter-screen; efflux-deficient yeast background strain, growth absorbance A615, 16 h; inhibition, % at 10 µM; hit rate 5% among 98,000
DAT uptake mod = human DAT dopamine uptake with cocaine, either direction | hit rate 1.3% among 110,000 | B-score at 10 µM | LLC-PK1 hDAT cells, [14C]-dopamine uptake with cocaine IC80; actives deviate in either direction | AID 449768 | Q01959;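 active = Z score or B-score, a plate-position-corrected score, falls beyond the plate's 99.7% confidence bounds, in either direction; inactive = both scores lie inside the 99.7% bounds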;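 also: scored against the spread of the other compound wells on the same plate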
PostGolgi yeast = growth inhibition of a yeast mutant, post-Golgi transport screen | inhibition, % at 10 µM | post-Golgi transport phenotypic cell assay | hit rate 0.9% among 98,000;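 also: yeast cells grown in 1536-well plates; yeast grown about 18 h at 30C before absorbance read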
S1P2 blocker = blocks the human S1P2 receptor; O95136; cell-based S1P2 antagonist assay, inhibition at 5 uM; inhibition, % at 5 µM; hit rate 0.21% among 97,000; AID 736; in the data active = inhibition above about 45%;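 also: CRE beta-lactamase reporter cells expressing human S1P2 stimulated with S1P; 0% = agonist at EC80 alone and 100% = agonist plus reference antagonist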
The depositor's hits bear a star; x = no result given. Rule as the data show it, unless noted: active = inhibition above about 30%; inactive = the rest.

Below each compound: sEH act, sEH inhibitor, S1P2 ag, PostGolgi ctrl, DAT uptake mod, PostGolgi yeast, S1P2 blocker
> COc1cc2c(cc1NC(=O)Nc1ccccc1)oc1ccccc12
 : -42.4, 41.4, -2.4, 11.8, 0.669, 6.9, -8.9
> O=C(NCCN1CCOCC1)c1ccccc1[N+](=O)[O-]
 : -7.1, 8.0, -4.6, -1.5, -0.622, 3.5, 7.2
> COCCNC(=O)COC(=O)c1nsc(Cl)c1Cl
 : 0.0, 0.1, -3.6, 6.9, 1.01, 0.9, -7.2
> Cc1ccc2nc(CSc3nc(C)cc(C)c3C#N)[nH]c2c1
 : -19.2, 19.8, 12.6, 21.6, -0.193, 22.2, -11.9
> COC(=O)C1=C(C(=O)c2ccc(C)cc2)C(c2ccccc2)n2nnnc2N1 (stereo not given)
 : -13.5, 14.9, -2.5, 6.2, x, 2.7, 18.6
> COc1cc(/C=N/NC(=O)c2cncc(Br)c2)ccc1OC(=O)c1ccc2c(c1)OCO2
 : -9.9, 10.6, -2.8, -3.4, x, -7.4, 9.8
> CC(=O)c1cccc(NC(=S)NC(=O)CC(C)(C)C)c1
 : 10.7, -8.6, -4.2, 10.2, 1.45, 5.3, 15.8
> O=C(NC(=S)NC1CCSC1=O)c1ccccc1Cl (stereo not given)
 : 4.9, -3.1, -4.9, 7.0, 0.0254, 4.0, 11.3
> Cc1ccc(C(=O)n2cnnc2N)cc1
 : -8.8, 10.3, -7.1, -0.8, 1.27, 13.1, 10.2
> COc1cc(C(=O)NCC(c2cccnc2)N2CCN(C)CC2)cc(OC)c1OC (stereo not given)
 : -2.6, 4.4, -0.7, 8.1, -0.645, 1.4, 2.8
> CC(=O)c1cc2c(cc1NC(=O)CCCC(=O)O)OCO2
 : 11.7, -12.9, -3.9, 1.4, -0.342, 3.1, -15.7
> CC1(C)CC(=O)C2=C(C1)N(Cc1ccccc1)C(=O)C2(NC(=O)C(C)(C)C)C(F)(F)F (stereo not given)
 : -1.3, 4.1, -8.2, 4.4, -0.0372, 9.1, -4.9
> CCC(=O)NC(=S)Nc1ccc(S(=O)(=O)NC(C)=O)cc1
 : 5.8, -5.3, -6.0, 1.6, -0.762, 9.8, -3.9
> Cc1nc(NS(=O)(=O)c2ccccc2)sc1NC(=O)OC(C)C
 : x, x, -3.5, 9.4, -0.533, 4.0, 13.9
> O=C(Oc1c(Cl)cc(Cl)c2ccccc12)N1CCCC1
 : 1.6, 0.1, -2.0, 32.3*, 0.149, 2.5, 10.0
> COCCNC(=O)c1cc(-c2ccc(OC)c(OC)c2)on1
 : -10.6, 8.9, -6.0, 28.0, 0.243, 14.8, 5.2
> O=C(CSc1nc2c(c(=O)n1-c1ccc(F)cc1)SCC2)N1CCCC1
 : 12.9, -10.8, -2.4, -0.6, 0.266, -4.2, 5.7
> COc1ccc(NC(=O)COC(=O)CCCc2c[nH]c3ccccc23)cc1OC
 : -6.6, 5.1, -7.2, 6.5, 0.00359, 1.4, 3.0
> O=C(Nc1ccc(Cl)cc1)OC(CN1CCCCC1)C(F)(F)F (stereo not given)
 : -2.5, 1.4, -1.7, 16.9, 2.04, -4.4, 12.1
> COc1ccccc1-n1c(CNC(=O)c2ccco2)nnc1SCC(=O)Nc1ccc(F)cc1
 : 9.2, -8.9, -3.6, -5.6, -0.212, 8.2, 5.1
> O=C(O)C1C2C=CC(O2)C1C(=O)NC1CCCc2ccccc21 (stereo not given)
 : 1.0, 0.6, -12.6, 26.3, -0.334, 6.3, 22.0
> Cc1cccc(C(=O)NNC(=O)c2cc3cc4ccccc4nc3s2)c1
 : 9.8, -11.1, 3.3, -2.3, 0.45, -8.9, 17.7
> CC1(C)Oc2ccc(NC(=O)c3ccco3)cc2O1
 : -1.9, 3.6, -3.9, 9.2, -0.868, 7.0, 15.8
> CCOC(=O)c1c(C)nc2c(c1-c1ccccc1)C(=O)CCC2
 : -8.0, 8.1, -3.0, 3.7, -0.266, 10.6, -17.1
> COC(=O)C1=C(NC(=O)c2ccc(C)c(C)c2)CCS1
 : 2.8, -5.1, 1.1, 4.7, 0.0718, 3.7, 11.5
> CN1C(=O)/C(=C/c2ccccc2OCc2ccccc2F)NC1=S
 : -4.9, 5.7, -3.3, 9.2, x, -7.9, 2.9
> COc1ccc(NC(=O)COC(=O)c2c3c(nc4ccccc24)CCCC3)cc1
 : x, x, -5.8, 33.5*, 0.0942, -0.5, 2.6
> Cc1cc(NC(=O)c2c([N+](=O)[O-])cnn2C)no1
 : 12.2, -9.1, -6.1, -3.8, -0.0684, 5.3, 20.2
> Cc1ccc(OCC(=O)Nc2ccccc2N2CCOCC2)c(C)c1
 : -7.6, 10.2, -6.4, 6.9, -0.736, 9.5, -13.5
> Cc1nc2ncnn2c(C)c1CCC(=O)NC(C)c1ccc2c(c1)OCCO2 (stereo not given)
 : 3.9, -3.6, -0.7, 7.3, -1.14, -6.0, 15.6

Pulled by structure from above (seven):
Below each compound: sEH act, sEH inhibitor, S1P2 ag, PostGolgi ctrl, DAT uptake mod, PostGolgi yeast, S1P2 blocker
> Cc1cccc(C(=O)NNC(=O)c2cc3cc4ccccc4nc3s2)c1
 : 9.8, -11.1, 3.3, -2.3, 0.45, -8.9, 17.7
> COc1ccc(NC(=O)COC(=O)CCCc2c[nH]c3ccccc23)cc1OC
 : -6.6, 5.1, -7.2, 6.5, 0.00359, 1.4, 3.0
> COc1cc(/C=N/NC(=O)c2cncc(Br)c2)ccc1OC(=O)c1ccc2c(c1)OCO2
 : -9.9, 10.6, -2.8, -3.4, x, -7.4, 9.8
> CN1C(=O)/C(=C/c2ccccc2OCc2ccccc2F)NC1=S
 : -4.9, 5.7, -3.3, 9.2, x, -7.9, 2.9
> O=C(CSc1nc2c(c(=O)n1-c1ccc(F)cc1)SCC2)N1CCCC1
 : 12.9, -10.8, -2.4, -0.6, 0.266, -4.2, 5.7
> CC1(C)CC(=O)C2=C(C1)N(Cc1ccccc1)C(=O)C2(NC(=O)C(C)(C)C)C(F)(F)F (stereo not given)
 : -1.3, 4.1, -8.2, 4.4, -0.0372, 9.1, -4.9
> COC(=O)C1=C(NC(=O)c2ccc(C)c(C)c2)CCS1
 : 2.8, -5.1, 1.1, 4.7, 0.0718, 3.7, 11.5

Additional structures:
Below each compound: sEH act, sEH inhibitor, S1P2 ag, PostGolgi ctrl, DAT uptake mod, PostGolgi yeast, S1P2 blocker
> COCCN(C(=O)C(C)C)c1nnc(-c2ccc(C)cc2)s1
 : 1.8, 0.0, -5.5, 7.7, 1.75, 5.1, 24.1
> COc1ccc(-c2cccc(C(=O)Nc3ccc(OC)c(OC)c3)c2)cc1
 : -27.4, 27.1, -7.6, 5.4, 0.0481, -0.9, 6.7
> Cc1ccccc1NC(=O)Cn1cnc2c1c(=O)n(C)c(=O)n2C
 : -2.3, 1.8, -3.4, 17.1, -0.474, 10.4, 16.2
> CN(Cc1cc2ccccc2[nH]c1=O)S(C)(=O)=O
 : -10.4, 9.9, -1.3, -0.5, 0.0972, -3.8, 12.4
> O=C(CCN1CCOCC1)Nc1ccccc1
 : 0.0, -1.6, -7.9, 0.9, 0.665, -10.8, 1.3
> CC(CC(=O)NC1CCCC1)c1ccccc1 (stereo not given)
 : -3.3, 5.1, -3.8, 4.3, 0.446, -3.8, 10.8
> COc1ccc(NC2=Nc3cccc4cccc2c34)cc1OC
 : -0.4, 2.7, -4.6, 0.9, -0.0875, -5.7, 6.6
> COc1ccc(CCN2CC(O)=C(c3nc(C)cs3)C2=N)cc1OC
 : 4.8, -2.9, -4.3, -0.4, -0.113, 1.6, 27.4
> CC(C)Oc1ccc(/C(O)=C2/C(=O)C(=O)N(Cc3cccnc3)C2c2ccco2)cc1 (stereo not given)
 : -4.4, 4.5, -0.9, 4.3, -0.259, -2.6, -13.8
> CN(C)c1cc[n+](CC(=O)Nc2cc(C(F)(F)F)ccc2Cl)cc1
 : 26.5, -25.5, -1.6, 1.5, -0.102, 1.5, 3.9
> Cc1ccc2c(c1)N(CCC(=O)NCCCOC(C)C)C(=O)C(C)O2 (stereo not given)
 : 7.3, -7.2, -5.5, 10.7, 1.33, 1.6, -3.8
> CCC(C)n1c(NC(=O)c2ccccc2)c(C#N)c2nc3ccccc3nc21 (stereo not given)
 : 1.8, -1.7, 55.9*, x, -0.485, x, -76.8
> Cc1oc(C)c(C(=O)NCCCC(=O)O)c1C(=O)NCCCC(=O)O
 : 4.5, -2.5, -1.5, 3.9, -1.26, 1.6, 5.8
> O=C(NN1C(=O)c2ccccc2C1=O)C1CCCCC1
 : -0.9, 1.4, 0.5, -12.6, -0.882, 6.5, 15.5
> Nc1c(-c2ccccc2)cnn1-c1cccc([N+](=O)[O-])c1
 : 13.6, -10.4, -7.1, -18.0, -0.0219, -2.4, 10.1
> Cc1c(Br)c([N+](=O)[O-])nn1C(C)C(=O)Nc1ccc2c(c1)OCO2 (stereo not given)
 : 9.5, -7.6, 1.3, 3.8, -0.232, -1.6, 2.0
> Cc1cccc(CSCCNC(=O)CSCc2ccc([N+](=O)[O-])cc2)c1
 : -21.3, 23.1, -5.7, 17.8, -0.127, 4.2, 13.5
> N/C(Cc1ccc([N+](=O)[O-])cc1)=N\OC(=O)COc1cccc2ccccc12
 : -0.1, 2.3, -1.8, 7.5, -0.536, -1.7, -2.4
> COc1ccc(/C=N/NC(=O)Cc2csc(Nc3cccc(C(F)(F)F)c3)n2)c(OC)c1
 : 7.2, -4.5, -11.0, 7.5, 2.68*, -33.2, -19.8
> CCc1ccc(C(=O)c2oc3nc(C)cc(C)c3c2N)cc1
 : 7.8, -6.5, -4.9, 19.1, -0.462, 2.5, -12.2
> CCn1c(C)[n+](CCCS(=O)(=O)[O-])c2cc(Cl)c(Cl)cc21
 : 3.1, -2.1, 0.8, 4.5, -0.704, -2.2, -3.6
> Cc1cc(C)nc(NC(=O)CCCC(=O)O)c1
 : 6.8, -4.6, 1.3, 2.9, x, 5.5, 11.2
> Cc1ccc(NC(=O)c2cc(Cl)nc3ccccc23)cc1
 : -15.2, 17.5, -4.5, -3.0, -2.46*, 0.7, 22.9
> COc1ccc(CCNC(=O)CCN2C(=O)COc3ccc(C)cc32)cc1OC
 : 13.7, -12.5, 1.2, 9.8, 1.94, 2.6, 13.5
> Cc1nc(-c2cccnc2)sc1C(=O)Nc1ccc(Cl)cc1
 : 0.8, 1.3, -2.8, 3.5, 0.799, -0.1, 21.3

Not all compounds are listed (hit frequency here may not be typical).
